Screening results as filed in PubChem BioAssay.
TRPV1 potentiator: HTS Assay for Compounds that Act as Potentiators of the Vanilloid Receptor 1. Transient receptor potential cation channel subfamily V member 1 (Homo sapiens), Q8NER1. TRPV1-expressing cells, Fluo-8 calcium influx, capsaicin EC20 potentiation; host cell line not named in the record; control for the full effect not named in the record. potentiation, % at 8.33 µM. actives 0.02% (n = 320,000). AID 540277, 2011; active means potentiation above 80%; inconclusive means 30% to 80%; inactive means below 30%; also: 0% is about no effect
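TRPV1-expressing cells were cultured overnight at 35.5C and loaded with Fluo-8 calcium dye for 40 to 90 min at room temperature. After a 10 s baseline, compound was added and calcium influx was read kinetically for 3 min (ex 480/em 520 nm).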
Sfp PPTase inh: qHTS Assay for Inhibitors of Bacillus subtilis Sfp phosphopantetheinyl transferase (PPTase); Potency, µM, without a hit: max response, negative = inhibition, hits mostly inhibitors; Biochemical Sfp PPTase activity, qHTS; actives 3.5% (n = 310,000); AID 1490, 2009; active = well fitted inhibition curve with a large enough effect; inconclusive = small, poorly fitted or top-dose-only effect, or another doubt; inactive = no such curve, though single readings can be large or run the other way;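 also: the enzyme is Sfp with the accession as filed and its product quenches rhodamine fluorescence; potency is read from the fitted curve at half-maximal effect; 0% = enzyme reaction without inhibitor and -100% = no enzyme wells; top concentration of the series not given in the record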
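With Hepes-Na pH 7.6 buffer containing 10 mM MgCl2, Sfp (15 nM) modified BHQ-2-YbbR (12.5 uM) using rhodamine-CoA (5 uM). Two reads 30 minutes apart at 525/598 nm yielded each well's rate.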
D2 ag: Beta-Arrestin HTS for Positive Allosteric Modulators of the Human D2 Dopamine Receptor: Agonists. D(2) dopamine receptor (Homo sapiens), P14416. DiscoveRx PathHunter D2 beta-arrestin, luminescence, 90 min; 100% = 57 uM dopamine signal. activation, % (test concentration not listed). actives 0.084% (n = 360,000); in the data active = activation above about 40%; inconclusive = about 15% to 40%; inactive = below about 15%; also: compound concentration not given in the record; the text of the record calls up to 30% inactive
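Agonist mode: compounds alone added to overnight-plated D2 PathHunter cells for 90 min at 37 C, with 57 uM final dopamine (EC100) defining full response. Beta-arrestin recruitment detected by chemiluminescent reagent, read after 1 h at ambient temperature.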
Six1-Eya2 inh: qHTS Assay for Inhibitors of the Six1/Eya2 Interaction. AlphaScreen GST-Six1/His-Eya2 binding, biochemical; hits give low values; control for the full effect not named in the record. AID 651725, 2012. actives 0.56% (n = 360,000). activity change, % (concentration not given with the values); in the data active = activity change below about -65%; inconclusive = about -30% to -65%; inactive = above about -30%; also: % is scaled to controls: 0 for no effect and ±100 for the full control effect
Target sequence (O00167 whole entry, looked up): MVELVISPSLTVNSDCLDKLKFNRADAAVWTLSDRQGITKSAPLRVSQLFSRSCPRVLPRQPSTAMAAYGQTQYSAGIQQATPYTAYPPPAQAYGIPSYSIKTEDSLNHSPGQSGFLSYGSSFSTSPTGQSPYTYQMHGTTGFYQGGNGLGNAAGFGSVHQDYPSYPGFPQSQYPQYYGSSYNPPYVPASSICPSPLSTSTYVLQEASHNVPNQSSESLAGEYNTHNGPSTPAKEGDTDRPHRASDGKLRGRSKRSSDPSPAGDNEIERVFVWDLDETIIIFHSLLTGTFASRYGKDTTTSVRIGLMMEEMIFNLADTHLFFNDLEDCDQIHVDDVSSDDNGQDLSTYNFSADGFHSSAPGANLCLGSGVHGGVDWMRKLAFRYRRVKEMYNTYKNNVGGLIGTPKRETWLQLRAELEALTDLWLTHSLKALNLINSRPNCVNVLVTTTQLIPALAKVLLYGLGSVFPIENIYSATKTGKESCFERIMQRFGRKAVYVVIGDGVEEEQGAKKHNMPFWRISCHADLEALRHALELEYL
Target sequence (Q15475 whole entry, looked up): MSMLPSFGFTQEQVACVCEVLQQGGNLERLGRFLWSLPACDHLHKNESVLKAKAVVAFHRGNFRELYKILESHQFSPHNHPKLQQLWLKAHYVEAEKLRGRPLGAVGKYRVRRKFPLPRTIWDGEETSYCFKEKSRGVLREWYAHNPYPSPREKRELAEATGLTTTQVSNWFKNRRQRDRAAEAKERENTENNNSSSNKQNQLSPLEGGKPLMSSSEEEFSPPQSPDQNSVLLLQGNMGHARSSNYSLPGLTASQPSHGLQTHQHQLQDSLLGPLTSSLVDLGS
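AlphaScreen luminescence read after one hour at 37 °C in darkness. Pin-transferred compounds met GST-Six1 and His-Eya2 protein (5X stock 250 nM/500 nM) plus glutathione donor and Ni-chelate acceptor beads (5X, 50 ug/mL).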
CtBP-E1A inh: qHTS Assay for Inhibitors of the CtBP/E1A Interaction; AlphaScreen GST-E1A/His-CtBP binding, 1536-well; hits give low values; control for the full effect not named in the record; activity change, % (test concentration not listed); actives 0.49% (n = 340,000); in the data active means activity change below about -65%; inconclusive means about -30% to -65%; inactive means above about -30%; also: % is scaled to controls: 0 for no effect and ±100 for the full control effect; compound concentration not given in the record
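Protein mix (5X: 125 nM each GST-E1A, His-CtBP) was incubated with pinned compound 2 h at 37 deg C in dark, in 50 mM Tris pH 8.0 buffer with 300 mM NaCl. Glutathione donor and nickel acceptor beads followed; AlphaScreen signal read after 1 h.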
PINK1 modulator: A Quantitative High throughput Screen to Identify Chemical Modulators of PINK1 Expression; Potency, µM (highest dose often 76.6 µM), without a hit: top-dose activation (PINK1 increase), actives largely listed as activators; AID 624263, 2012; PINK1 immunofluorescence, high-content cytometry, 24 h; actives 0.2% (n = 410,000); active = well fitted activation curve with a large enough effect; inconclusive = small, poorly fitted or top-dose-only effect; inactive = flat fitted curve, though single readings scatter; cell line not stated here;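 also: potency is read from the fitted curve at half-maximal effect; % of control where 0% means no effect; nearly all actives have a fitted effect of over 65% in size; a mitochondrial uncoupler was the plate control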
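PINK1 protein level read as immunofluorescence by microplate cytometer in a fixed, stained stable cell line after 24 h exposure to five compound concentrations, with CCCP as control.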
D2 potentiator: Beta-Arrestin HTS for Positive Allosteric Modulators of the Human D2 Dopamine Receptor: Potentiators; D(2) dopamine receptor (Homo sapiens), P14416; DiscoveRx D2 beta-arrestin cells, luminescence, 90 min; 100% = 57 uM dopamine signal; potentiation, % (no concentration beside the values); actives 0.23% (n = 360,000); active = potentiation of 50% or more; inconclusive = 30% to 50%; inactive = 30% or less;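 also: compound concentration not given in the record; tested on top of an EC20 dose of dopamine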
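PathHunter D2 cells, attached overnight at 37 deg C, received compound in DMSO plus dopamine at EC20 (50 nM final) for 90 min at 37 deg C. Beta-arrestin recruitment was read as luminescence after 1 h with detection reagent at ambient temperature.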
Numbers without * were called inactive; u = inconclusive; x = no result given; & = joins results of further samples; [ ] = remark or other dose.

SMILES	TRPV1 potentiator	D2 ag	CtBP-E1A inh	PINK1 modulator	D2 potentiator	Six1-Eya2 inh	Sfp PPTase inh
CSc1ccccc1NC(=O)CN(C)C(C)C(=O)NCc1ccc2c(c1)OCO2 (stereo not drawn)	x	-5.0	1	-1.2%	-3	3	x
Cc1nn2c(COc3ccc(NC(=O)C(C)C)cc3)nnc2c2ccccc12	7	-9.3	-19	0.5%	-24	-25	16%
Cc1ccc(NC(=O)c2cccc(S(=O)(=O)N3CCCCC3)c2)cc1	-7	1.0	u	2.5%	-2	-10	33%[activator]
CCOc1cccc(OCCCCN2CCCCC2)c1	-4	-2.0	0	-0.1%	-33	5	u
COc1ccc(-c2nnc(SCC(=O)NCc3ccco3)o2)cc1	-9	2.0	5	0.0%[38.3 µM]	-6	-2	-24%
Cc1cc(C)n(-c2ccc(C(=O)N3CCc4ccccc43)cc2)n1	7	-2.3	-2	2.9%	1	7	1%
CC(=O)N1CCN(S(=O)(=O)c2cccc(C(=O)NNC(=O)Cn3ccc(C(F)(F)F)n3)c2)CC1	1	-3.3	-14	-2.3%	24	-14	x
CSc1ccccc1NC(=O)CN(C)CC(=O)Nc1ccc(Cl)cc1F	8	-2.4	8	-1.8%	-26	6	-2%
CCCCN1C(=O)/C(=C2\SC(N3CCCCC3)=NC2=O)c2ccccc21	-13	-3.0	u	-0.3%	-8	u	45µM*
Cc1ccc(S(=O)(=O)N(C)C)cc1NC(=O)COC(=O)Cc1ccccc1F	6	-4.5	2	2.7%	-26	-2	x
NC(=O)CCn1cnc2ccccc21	x	-6.3	5	-1.0%	0	0	18%
Cc1cc(NC(=O)COC(=O)c2c(C)c(C)c(C)c(C)c2C)no1	x	0.6	6	4.0%	10	-3	x
Cc1cccc(NC(=O)c2ccc(C(=O)Nc3cccc(C)c3)nc2)c1	2	-1.3	6	6.5%	4	4	2%
N#Cc1c(C#N)c(SSc2c(C#N)c(C#N)c(N)n2-c2ccccc2)n(-c2ccccc2)c1N	x	6.2	0	u	u	3	x
CCOC(=O)N1CCN(S(=O)(=O)c2ccc(C)cc2)C1c1ccccc1 (stereo not drawn)	-8	-0.2	1	0.1%	15	1	6%
COC(=O)c1ccccc1NC(=O)COC(=O)c1ccccc1N=Nc1ccc(N(C)C)cc1	-4	-1.6	u	8.9%	-16	u	5%
CC(SCc1ccccc1)C(=O)NN=C1CCN(C)CC1 (stereo not drawn)	-14	0.3	-21	-0.2%[38.3 µM]	4	-5	11%
CCOC(=O)NC(Nc1ncccn1)(C(F)(F)F)C(F)(F)F	0	-3.4	7	-2.2%	-7	12	-2%
CCOC(=O)C1(CCOc2ccccc2)CCN(C(=O)CCSC)CC1	x	2.2	6	-0.4%	-3	-8	x
Cc1cccc(NC(=O)C2CCCN(S(=O)(=O)c3ccc4[nH]c(=O)ccc4c3)C2)n1 (stereo not drawn)	-5	-5.8	-2	-0.3%	7	-1	16%
O=C(NC12CC3CC(CC(C3)C1)C2)c1ccc(-c2cccc(Cl)c2)o1	29	-4.8	9	u	-23	-12	-7%
COc1ccc2cc(C3(C)NC(=O)N(CC(=O)NCc4ccco4)C3=O)ccc2c1 (stereo not drawn)	-14	0.5	-2	-2.0%	9	-3	3%
COCCNC(=O)c1c(CSc2ccccc2)noc1C(=O)NCc1ccccc1	u	-1.5	0	0.3%	0	7	22%
C/C(=N\n1c(C)nc2ccccc2c1=O)c1ccc(C)o1	x	0.2	-1	0.9%	-7	1	17%
CCCC12CN3CCN(CC(C3)/C1=N\NC(=O)c1ccc(F)cc1)C2	4	5.9	x	2.4%	-9	-1	9%
CCN(CC(=O)NC1CCS(=O)(=O)C1)c1nc(-c2ccccc2)nc2ccccc12 (stereo not drawn)	9	-1.7	-1	2.0%	-18	2	7%
COC(=O)c1cccc(NC(=S)Nc2cccc(Cl)c2Cl)c1	8	-4.8	6	0.5%	-12	4	10%
COc1ccc(OCC(=O)NCCNC(=O)c2ccncc2)cc1	-8	5.1	-22	0.6%	-2	-9	29%
O=C(c1ccc(N2CN(C(=O)c3ccco3)c3nc4ccccc4nc32)cc1)N1CCOCC1	-15	-2.3	3	1.9%[38.3 µM]	-11	5	-23%
Cc1ccc(S(=O)(=O)N2[C@@H](c3ccccc3)C(C(=O)O)=CC[C@H]2c2cccc(Cl)c2)cc1	18	-3.1	3	-0.5%	-3	8	x
S=C(NCCc1ccccc1)N/N=C/c1ccc(Cl)cc1	-12	5.0	-18	19%	-14	-23	16%
O=C(Cn1c(-c2cncs2)nc2ccccc21)NCCc1ccccc1	x	-4.4	-2	-1.2%	-7	2	3%
CCc1ncc(C(O)c2cccc3ccccc23)n1C (stereo not drawn)	4	-3.0	-3	-1.8%[38.3 µM]	-5	-1	22%
CC(C)(C)c1cc(CN2CCC(O)CC2)cc(C(C)(C)C)c1O	12	-2.9	5	-3.0%	-23	2	-16%
OC1CCN(c2ncnc3nc[nH]c23)CC1	3	-1.2	1	1.0%	-9	-2	0%
COc1ccccc1/C=C/c1ccc2cccc(O)c2n1	-1	5.9	1	7.2%	-8	-7	0%
O=C(O)c1cc(S(=O)(=O)N2CCN(C(c3ccccc3)c3ccccc3)CC2)ccc1Cl	-10	0.0	3	-0.6%	4	-8	-22%
CCOC(=O)Cc1cnc(NC(=O)CSc2nc(N)cc(N)n2)s1	2	-2.6	-7	1.8%	9	-5	-1%
O=C(O)c1ccc(NCc2cccs2)cc1	0	-1.6	5	-0.5%	7	2	9%
NC(Cc1ccc(O)cc1)c1cn([C@@H](CCC(=O)O)C(=O)N2CCNCC2)nn1 (stereo partly drawn)	-5	-0.4	-26	1.5%	-1	-7	-9%
CCOc1ccc(NS(=O)(=O)c2ccc(C)c(C(N)=O)c2)cc1	-5	3.5	2	0.0%	-6	2	5%
Cc1ccc(OCc2n[nH]c(=S)n2C2CCCCC2)cc1	1	2.5	-3	4.1%[38.3 µM]	-13	-6	9%
c1ccc(-c2noc(CN3CCOCC3)n2)cc1	-3	5.3	5	-0.3%	-4	7	20%
CCOC(=O)C1CCCN(C(=O)CN2C(=O)/C(=C/c3ccc(OC)cc3)Oc3ccccc32)C1 (stereo not drawn)	11	-4.4	4	1.2%	-1	15	u
Cc1nnc(NC(=O)CSC2=NN3CCCC(=O)N=C3S2)s1	3	-1.5	x	-1.9%	-10	-1	8%
CCOC(=O)C1CCN(c2ncnc3nc[nH]c23)CC1	6	-0.8	4	0.8%	-2	5	14%
[O-]/[N+](=C/c1ccc(F)cc1)c1ccccc1	0	-1.5	4	0.9%	-12	2	u
Brc1ccc2c(c1)[C@H]1OCC[C@H]1[C@@H](c1cccs1)N2	16	1.8	15	1.7%	-4	-2	0%
COCC(=O)N1CCC(Oc2ccc(C(=O)NC3Cc4ccccc4C3)cc2)CC1	4	-1.2	7	1.2%	10	3	19%
O=C(Nc1ccc2c(c1)OCO2)Nc1cnccn1	-3	0.1	-22	7.9%[38.3 µM]	-11	-1	5%
O=C(O)c1ccc([N+](=O)[O-])nc1	x	12	-1	-0.1%	-3	11	x
COc1ccccc1N1CCN(c2ccc([N+](=O)[O-])cc2Cl)CC1	27	-0.5	-29	-1.8%	-25	u	-5%
Clc1ccc(N(CC2CO2)CC2CO2)cc1 (stereo not drawn)	x	2.2	7	-6.0%	-4	1	x
CCC(CC)C(=O)Nc1ccc(-c2cn3cccnc3n2)cc1	6	2.8	x	1.3%&4.1%	-11	-1	10%
CCCCC(=O)Nc1ncc(Br)s1	-14	-2.7	1	-1.9%[38.3 µM]	-16	4	11%
CCOc1ccc(C(=O)CCC(=O)NC(CC(C)C)C(=O)OC)cc1 (stereo not drawn)	11	2.1	4	1.2%	-1	5	2%
Cc1ccc(S(=O)(=O)Nc2ncnc3sccc23)cc1C	-1	-5.5	1	-1.8%	-4	-3	x
O=C(CCc1nc2ccccc2n1-c1ccccc1)NCCO	5	-6.6	6	-0.9%	-6	-4	14%
CC(C)CCNC(=O)NC(=O)CSc1ccc(S(=O)(=O)N2CCOCC2)cn1	-7	0.5	10	5.3%	-2	2	x
Cc1ccccc1C(=O)NC1CCN(CC(=O)Nc2c(C)cccc2C)CC1	-11	-4.1	1	-0.1%	-19	0	18%

An excerpt taken from the entries so far, as a working copy:
SMILES	TRPV1 potentiator	D2 ag	CtBP-E1A inh	PINK1 modulator	D2 potentiator	Six1-Eya2 inh	Sfp PPTase inh
CSc1ccccc1NC(=O)CN(C)C(C)C(=O)NCc1ccc2c(c1)OCO2 (stereo not drawn)	x	-5.0	1	-1.2%	-3	3	x
Cc1nn2c(COc3ccc(NC(=O)C(C)C)cc3)nnc2c2ccccc12	7	-9.3	-19	0.5%	-24	-25	16%
